Compound activity from PubChem.
A1 inh: inhibitors of the anti-apoptotic protein A1, read as caspase activation; MEF A1-2A-BIM cells, Caspase-Glo 3/7 luminescence, 3 h; percent of clofoctol response, vehicle zero; caspase activation, % (no concentration beside the values); 330,000 tested, 0.066% active; AID 2462;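 active = over half of replicate activation scores above 10%, or exactly half above 10 with the replicate mean above 10; inconclusive = replicate mean below 10 yet half the replicates above 10; inactive = over half of replicates below 10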;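 note: wells of about 30 µL received 50 nL stock; many hits fall short of the cut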
LANA-H2B inh: blocks KSHV LANA binding to histone H2A/H2B. Q9QR71. cell-free LANA-H2A/H2B peptide, fluorescence polarization. inhibition, % (test concentration not listed). 320,000 tested, 0.6% active; in the data active = inhibition mostly above about 10%, no sharp cut-off; inactive = mostly below about 6.7%;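 note: stock transfer was 7.5 nL into about 10 µL; 0% = median of vehicle wells and 100% = median of positive control wells; one replicate is shown; the record names a cut of 25% in any replicate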
Ecoli growth: blocks Escherichia coli growth; OD600, 23 h; stronger effect = lower value; OD600 absorbance (test concentration not listed); 330,000 tested, 0.21% active; AID 1053175;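 active = OD600 absorbance below the run mean of sample wells minus 3.6 SD, in any replicate, cut at about 0.56 in these data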;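 note: stock transfer was 300 nL into about 60 µL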
Vif TR-FRET: HIV-1 Vif–A3G interaction blockers – biochemical, TR-FRET, GST-Vif 1-94, biotin-A3G peptide, dose response retest, primary screen (AID 1117319); inhibition, %; hits with a dose series show IC50 in µM; TR-FRET GST-Vif / biotin-A3G peptide binding; higher % means a stronger effect; test concentration not given here; strong numbers were not always called active; 260,000 tested, 0.57% active;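 active = above the screen mean plus three standard deviations and confirmed in dose response; inconclusive = results disagree or hit not tested in dose response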;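 note: Vif residues 1-94 fused to GST binding biotinylated APOBEC3G peptide 110-148; 0% = full assay without inhibitor and 100% = GST in place of GST-Vif; retest series ran down from 100 µM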
B2AR ag: activates human beta-2 adrenergic receptor causing internalization. 340,000 tested, 0.43% active. P07550. response, % (no concentration beside the values). Am2.2-beta2AR cells, FAP receptor internalization, flow cytometry; reference of the scale not given here;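 active = response above a set limit, near 3 SD of response in nonfluorescent compounds, cut at about 42% in these data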;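 note: stock transfer was 100 nL into about 11 µL; a reference agonist was the positive control; negative values mostly stem from fluorescent compounds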
HNF4A DNA FP: change in binding of human HNF4 alpha to DNA | AID 1224865 | HNF4a-FITC DNA binding, fluorescence polarization, 1 h | 360,000 tested, 0.3% active | P41235 | activity change, % at 10 µM; in the data active = activity change above about 30%, passing the limit was not always enough;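 note: controls were the assay level and a saturating level of protein; the project sought stronger binding though the title names inhibitors; some compounds called inactive have numbers as strong as hits; positive values seem to mean higher polarization but the record does not say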
Target sequence (P41235 whole entry, looked up): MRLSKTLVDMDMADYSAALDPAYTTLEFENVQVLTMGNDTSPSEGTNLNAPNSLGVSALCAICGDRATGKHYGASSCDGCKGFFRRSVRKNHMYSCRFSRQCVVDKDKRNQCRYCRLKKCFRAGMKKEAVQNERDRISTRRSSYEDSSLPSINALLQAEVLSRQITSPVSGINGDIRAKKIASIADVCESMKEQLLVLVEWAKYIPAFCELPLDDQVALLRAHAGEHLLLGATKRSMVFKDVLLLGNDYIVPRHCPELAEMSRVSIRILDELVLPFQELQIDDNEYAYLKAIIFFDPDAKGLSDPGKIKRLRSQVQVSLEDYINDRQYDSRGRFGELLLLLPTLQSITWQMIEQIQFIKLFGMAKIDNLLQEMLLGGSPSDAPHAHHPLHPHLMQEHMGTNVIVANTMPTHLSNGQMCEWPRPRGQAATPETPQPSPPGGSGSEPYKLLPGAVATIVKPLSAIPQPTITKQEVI
UCH37 inh: inhibitors of human deubiquitinating enzyme UCH37; Q9Y5K5; inhibition, % (no concentration beside the values); 330,000 tested, 0.33% active; purified proteasome/UCH37, Ub-AMC cleavage fluorescence;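 active = mean of two replicates above 20%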;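 note: 0% = compound-free wells with enzyme and 100% = wells lacking proteasome; stock transfer was 100 nL into about 20 µL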
Target sequence (Q9Y5K5 whole entry, looked up): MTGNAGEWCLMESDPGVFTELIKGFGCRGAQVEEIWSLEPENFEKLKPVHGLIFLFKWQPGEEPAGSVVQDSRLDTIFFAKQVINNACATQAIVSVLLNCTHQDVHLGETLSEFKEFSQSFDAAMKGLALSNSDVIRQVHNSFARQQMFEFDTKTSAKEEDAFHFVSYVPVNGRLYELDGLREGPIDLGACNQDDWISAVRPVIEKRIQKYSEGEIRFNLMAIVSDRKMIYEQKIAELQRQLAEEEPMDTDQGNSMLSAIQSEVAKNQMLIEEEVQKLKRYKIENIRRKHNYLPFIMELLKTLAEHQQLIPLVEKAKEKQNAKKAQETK
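Material: Human UCH37 enzyme supplied as purified proteasome complex | Schedule: 30 min compound-proteasome preincubation then 25 min substrate reaction, room temperature | Detection: AMC fluorescence from Ub-AMC cleavage, excitation 355 nm, emission 460 nm | Benchmarks: Wells without proteasome as full block, compound-free enzyme plus substrate as uninhibited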
* marks the source's active call; other numbers are inactive results; i = inactive; ? = inconclusive; · = not tested or not shown; & = joins results of further samples.

SMILES	A1 inh	LANA-H2B inh	Ecoli growth	Vif TR-FRET	B2AR ag	HNF4A DNA FP	UCH37 inh
COc1ccc(C(=O)Cn2nnc(-c3ccccc3NC(=O)c3ccco3)n2)cc1	-0.8	-0.8	0.74	-10%	4	-0.2	-55
Cc1ccsc1/C=N/NC(=O)Cc1cccn1C	-0.2	-1.4	·	9%	9	2.3	·
COC(=O)c1cc(S(=O)(=O)N2CCN(c3ccc(C(C)=O)cc3)CC2)cn1C	0.4	-2.9	0.7	·	0	3.8	-0.1
O=C(NCC1CCCO1)c1onc(CSc2ccc(F)c(F)c2)c1C(=O)O (stereo not given)	-1.2	2.7	0.67	3%	7	3.1	2.3
N/C(Cc1nc2ccccc2s1)=N\O	-0.9	0.9	·	18%	15	6.8	·
COc1ccc(NC(=O)CCS(=O)(=O)c2ccc3c(c2)CCCN3C(C)=O)cc1	-0.7	-0.1	0.73	-1%	-7	3.5	2.9
Cc1ccc(OCCCCn2ccnc2)c([N+](=O)[O-])c1	-0.5	2.1	0.7	-4%	-5	-1.8	6.1
O=C1CC(N2CCOCC2)C(=O)N1CCN1C(=O)CC(N2CCOCC2)C1=O (stereo not given)	0.9	-0.9	0.66	-5%	-2	-4.6	0.6
C=C1CCN(c2ccc(C(=O)O)cc2[N+](=O)[O-])CC1	-1.2	-3.9	0.67	·	·	·	3.0
CN(C)S(=O)(=O)c1cccc(NC(=O)COC(=O)C2(c3ccccc3F)CCCC2)c1	-0.1	3.7	0.64	·	-11	1.0	2.2
Cc1c(CN2CCCCC2C)c(=O)n(-c2ccccc2)n1C (stereo not given)	-0.5	1.7	0.67	3%	-2	2.4	0.4
COc1ccc(C2(CNC(=O)CCC(=O)O)CCCC2)cc1	0.2	1.8	0.79	5%	0	2.3	1.5
CCOP1(=O)OCC2OC(n3cnc4c(N)ncnc43)C(O)C2O1 (stereo not given)	1.1	1.0	·	-1%	-1	-4.4	·
CCCOc1ccc(C(=O)C(CCC(CNCC)C(=O)c2ccc(OCCC)cc2)CNCC)cc1 (stereo not given)	·	·	0.68	1%	46*	5.2	4.3
CCCCN(CC)CCCNC(=O)c1cn(CC)c2ccc(S(=O)(=O)N3CCc4ccccc4C3)cc2c1=O	-0.4	-0.8	0.69	·	18	-2.6	7.7
CC(C)(C)c1ccc(C(=O)C2CCCN(C(=O)c3ccccn3)C2)cc1 (stereo not given)	·	·	0.69	·	2	1.7	4.5
Cn1cnnc1Sc1ccc(/C=C(\CC(=O)O)c2nc3ccccc3s2)cc1[N+](=O)[O-]	-0.2	2.3	0.64	23%	-2	-2.8	17
CC(=O)Nc1ccc(NC(=O)CNC(=O)c2cccc(C)c2)cc1	-0.5	2.3	0.68	·	-1	1.7	4.8
COc1ccc(-n2ncc3c2CC(C)(C)CC3NC(=O)c2cn[nH]c2)cc1 (stereo not given)	0.4	-0.8	·	·	-2	2.2	·
Cc1ccc(S(=O)(=O)N2CCN(C(=O)CCC(=O)NCCc3ccc(F)cc3)CC2)cc1	1.4	6.6	0.7	·	1	1.6	0.8
CCCCSCCCNC(=O)CS(=O)Cc1nc(-c2cccc(C)c2)oc1C (stereo not given)	-0.3	-6.9	0.71	2%&-1%	0	-0.6	6.0
COc1ccc(NS(=O)(=O)c2ccc3nc(COc4ccc5ccccc5c4)[nH]c3c2)cc1	-0.1	-0.5	0.74	1%	9	0.1	2.8
Cc1cc(C)cc(NC(=S)N2CCN(c3ccccn3)CC2)c1	0.4	-1.8	0.69	·	1	3.3	4.8
Cc1cccc(NC(=O)CCN2C(=O)c3ccccc3C2=O)n1	0.2	-3.6	0.69	3%	-3	-0.2	1.7
O=C(c1ccc(NC(=S)NCc2ccc(Cl)cc2)cc1)N1CCCCC1	-0.3	1.7	0.69	·	-14	3.3	-0.7
CCc1ccccc1Oc1coc2cc(O)ccc2c1=O	-0.3	-0.8	0.6	0%	15	2.3	-124
COc1ccc(C)cc1S(=O)(=O)N1CCCCCC1	-0.2	3.8	0.7	·	0	3.6	-1.9
COCc1ccc(C(=O)NC2CCSc3ccccc32)cc1 (stereo not given)	0.3	8.6	0.71	·	2	0.2	5.0
O=C(COC(=O)C1CCN(c2ccc(C(F)(F)F)cn2)CC1)c1ccccc1Cl	-0.5	3.0	0.62	-5%	0	-2.4	-0.1
COc1cc2[nH]c(C(=O)N3CC(C)OC(C)C3)cc2c(OC)c1OC (stereo not given)	2.5	-4.8	0.69	-9%	3	-4.0	0.1
CC(O)Cc1cn(CC(=O)N2CCNCC2)nn1 (stereo not given)	0.3	5.2	0.67	7%	-1	4.1	-0.2
CSC1=NCCN1C(=O)C12CC3CC(CC(C3)C1)C2	0.9	-3.0	0.72	·	-10	4.5	2.2
CC1CCN(S(=O)(=O)c2ccc(NC(=O)C3CSC4(C)CCC(=O)N34)cc2)CC1 (stereo not given)	0.3	3.3	0.71	1%	1	-2.3	-2.8
Cc1ccc(NC(=O)CCNS(=O)(=O)c2ccccc2F)cc1S(=O)(=O)N1CCOCC1	-0.2	1.8	0.71	-1%	1	-3.8	3.0
CC(C)Oc1ccc(S(=O)(=O)N2CCOCC2)cc1NC(=O)Cc1c(F)cccc1Cl	1.9	-5.9	0.69	1%	-2	1.3	-1.4
O=C(CSc1n[nH]c(-c2ccccn2)n1)Nc1ccc(F)cc1	0.2	2.5	0.57	·	1	0.5	2.3
Cn1c(SCC(=O)Nc2ccc(Br)cn2)nnc1C1CC1	0.3	2.5	0.68	·	-4	-4.6	3.9
CCOc1ccc(S(=O)(=O)NCc2cccnc2)cc1C	1.5	3.9	0.66	-1%	4	3.2	2.2
CC1CCCN(CCC(=O)Nc2ccccc2)C1 (stereo not given)	1.3	-1.4	0.7	3%	0	-1.1	5.5
N#Cc1c(NC(=O)C2CC(Cl)=CCC2C(=O)O)sc2c1CCCCC2 (stereo not given)	-0.5	-0.3	0.68	5%	10	-0.1	3.8
CCC1Sc2ccc(S(=O)(=O)CCC(=O)Nc3ccc(C(=O)OC)cc3)cc2NC1=O (stereo not given)	0.1	-0.5	0.71	·	-6	-1.1	1.3
COc1cc(COCC(O)CN2CCN(CCN3C(=O)c4cccc5cccc(c45)C3=O)CC2)cc(OC)c1OC (stereo not given)	1.9	-0.1	0.67	21%	10	-2.1	-2.9
O=C(NNC(=O)c1cc(-c2ccco2)nc2ccccc12)c1ccccc1	0.3	5.6	0.71	14%	-7	-0.3	i
CC1(C)CC(NC(=S)NC2CC2)CC(C)(C)N1	0.9	1.4	0.68	-7%	-6	2.6	2.7
COc1ccc(CN(C)C(=S)Nc2ccc(Cl)cc2)cc1	-0.5	-5.4	0.65	2%	8	-0.3	1.3
Cc1[nH]nc2c1C(c1ccccc1)C1=C(CC(C)(C)CC1=O)N2 (stereo not given)	i	5.6	0.71	i	-6	1.0	-164
Cc1nn(C)cc1/C=C1\SC(=S)NC1=O	1.2	-0.4	0.67	-1%	5	-3.1	14
O=C(NCc1cccc(Cl)c1)C1CCN(S(=O)(=O)c2ccc(F)cc2)CC1	0.6	-13	0.68	·	-4	-0.3	0.6
CCn1nc(C)c(CNC(=O)CC2C(=O)NCCN2Cc2ccc(C)o2)c1C (stereo not given)	-0.6	1.1	0.71	-1%	-4	-0.8	-0.4
COc1ccc(OCCC(=O)OCC(=O)NCCc2ccccc2)cc1	-0.8	1.8	0.68	-3%	4	0.6	3.0
CC1=C(C)CC(C(=O)NNC(=O)c2csc(C)c2C)C(C(=O)O)C1 (stereo not given)	0.3	-4.0	0.69	1%	7	0.7	1.3
S=C(NCCN1CCOCC1)NC1CCCCC1	-0.3	0.4	0.69	·	-4	-2.5	3.5
N#C/C(=C/c1ccc(N2CCOCC2)o1)C(=O)NC1CCCCC1	0.6	-29	0.68	10%	-23	172	27*
O=C(O)CCCn1c(O)c(C=C2N=c3ccccc3=N2)sc1=S	-0.6	-2.5	0.7	4%	16	0.5	9.4
Cc1ccc(NC(=O)Cc2ccc(Cl)c(Cl)c2)cc1S(=O)(=O)N(C)C	0.9	3.5	0.68	-9%	-9	0.8	4.7
CCN(c1ccccc1)S(=O)(=O)c1cc2c3c(c1)C(C)C(=O)N3CCC2 (stereo not given)	-0.5	0.4	0.66	·	-2	1.5	-1.4
COc1ccc(Oc2coc3cc(OC(=O)c4cncc(Br)c4)ccc3c2=O)cc1	0.3	7.1	0.71	-5%	9	-2.9	-13
COc1ccc(C(=O)Nc2nc(N)n(-c3ccccc3)n2)cc1	-0.7	5.4	0.68	2%	0	0.8	0.4
O=C(COC(=O)[C@@H]1CCCN1C(=O)c1cccs1)Nc1ccc(Br)cc1	-1.3	-1.3	0.67	-8%	3	2.5	-1.2
CCNc1sc(C(=O)c2cccs2)c(N)c1-c1nc2ccccc2s1	-1.9	3.9	0.67	?	8	13	0.1

Shown as a hit in B2AR ag, of those listed so far:
SMILES | LANA-H2B inh | Ecoli growth | Vif TR-FRET | B2AR ag | HNF4A DNA FP | UCH37 inh
CCCOc1ccc(C(=O)C(CCC(CNCC)C(=O)c2ccc(OCCC)cc2)CNCC)cc1 (stereo not given) | · | 0.68 | 1% | 46* | 5.2 | 4.3

Further entries
SMILES	A1 inh	LANA-H2B inh	Ecoli growth	Vif TR-FRET	B2AR ag	HNF4A DNA FP	UCH37 inh
COc1ccc(Cc2nnc(SCC(=O)Nc3ncc(C)s3)o2)cc1	-0.7	1.2	0.66	6%	-3	0.0	0.9
O=c1[nH]c(C2CCN(S(=O)(=O)c3ccc(C(F)(F)F)cc3)CC2)nc2c1nnn2Cc1cccc(F)c1	-0.3	-2.6	0.71	·	6	4.0	6.7
Cc1ccc(NC(=O)CSc2nc(C)c(Cc3ccccc3)c(=O)[nH]2)cc1C	-0.4	-0.4	0.7	20%	7	3.8	3.1
CN(C)S(=O)(=O)c1cccc(COC(=O)c2cnccn2)c1	0.4	0.3	0.7	·	-2	2.3	2.8
Nc1ccc(S(N)(=O)=O)cc1	2.2	0.2	·	·	-11	1.8	2.0
CCC(C)NC(=O)c1ccccc1C(=O)NC(C)CC (stereo not given)	1.7	1.4	0.67	-3%	-2	-0.5	1.1
Cc1cc2c(C)cc(=O)[nH]c2cc1NC(=O)CCl	0.0	-10	·	29%	10	1.6	·
Clc1ccc(OCc2nn3c(C4CCCCC4)nnc3s2)cc1	0.2	-8.9	0.72	-10%	-4	-1.4	0.8
Cc1ccc(/C=N/NC(=O)c2ccc(NC(=O)c3ccccc3Cl)cc2)o1	-0.8	-1.2	·	0%	-9	6.4	·
Nc1ncc(S(=O)(=O)c2ccc([N+](=O)[O-])cc2)s1	·	·	0.65	-8%	-6	-0.6	3.8
COc1cc(S(=O)(=O)N2CCC(O)(c3cccc(C(F)(F)F)c3)CC2)ccc1-n1cnnn1	2.0	0.3	0.69	-2%&0%	-8	-3.1	-0.7
O=C(NNC(=S)NC(=O)c1ccc(Br)cc1)c1cccc([N+](=O)[O-])c1	-0.6	3.5	0.64	-1%	8	-4.5	3.5
O=C(Nc1c(F)cc(F)cc1Br)c1cccnc1	-0.9	2.8	0.63	1%	1	-1.8	1.5
Nc1ccc(C(=O)N2CCN(S(=O)(=O)/C=C/c3ccccc3)CC2)cc1[N+](=O)[O-]	-0.1	-3.0	0.68	-9%	4	-4.2	2.2

Just B2AR ag, for some of the entries so far:
SMILES,B2AR ag
O=C(NNC(=S)NC(=O)c1ccc(Br)cc1)c1cccc([N+](=O)[O-])c1,8
O=C(Nc1c(F)cc(F)cc1Br)c1cccnc1,1
Nc1ccc(C(=O)N2CCN(S(=O)(=O)/C=C/c3ccccc3)CC2)cc1[N+](=O)[O-],4

Rows are unselected; any-hit rate near 2.1%.
